High-throughput results deposited in PubChem BioAssay by PCMD.
Biofilm kill mix: clotrimazole potentiators killing C. albicans biofilm, primary screen, 4-compound mixtures; AID 1242, 2008; inhibition, % at 7.6 µM; C. albicans biofilm persisters + clotrimazole, fluorescence viability; primary screen in compound mixtures of four per well; 120,000 compounds, 0.02% hits;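 active = inhibition above 30.3% in the primary screen of four-compound pools, then above 30% when the compound was retested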;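 note: compounds exposed to preformed 24 h biofilms for 48 h; the number belongs to the whole pool; some results filed as inactive read as strong as hits; inactives centre near 12; 0% = biofilm with clotrimazole alone and 100% = kill control; retested singly at about 60 µM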
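Probe or stimulus – Clotrimazole 50 µg/mL co-treatment · System – C. albicans biofilms · Schedule – 24 h biofilm formation, then 48 h compound exposure, 37 °C · Evaluation – percent inhibition of biofilm viability · Technique – 2-h Alamar Blue fluorescence, 535/590 nm excitation/emission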
The depositor's hits bear a star. Only part of the results is shown; count on the stated rates, not on these rows.

SMILES	Biofilm kill mix
O=C(NNC1=NCCCCC1)Nc1ccc(Cl)cc1	15
CC(C)(C)c1ccc(/C=C/C(=O)Nc2ncccn2)cc1	9
Cc1ccsc1C(=O)N/N=C/c1ccc2c(c1)OCO2	11
O=C(NCc1ccccn1)C(=O)NCC(c1ccco1)N1CCN(c2ccc(F)cc2)CC1 (stereo unspecified)	11
C=CCn1c(SCc2csc(-c3ccc(Cl)cc3)n2)nnc1-c1ccccc1OC	15
COc1cccc2c1OCC/C2=N\NC(=O)COc1ccccc1C	11
CC/C=C/C(=O)N1CC2(CC(c3cccc(NC(=O)CCCCC)c3)=NO2)C[C@H]1C(N)=O (stereo partly specified)	12
C=CCNC(=S)/N=c1/ccccn1CCC	4
CCOC(=O)c1c(NC(=O)CSc2nnc(CNc3ccc(Cl)cc3)o2)sc(C)c1C	10
COc1ccc(C2=NOC(C(=O)Nc3cc(C)on3)C2)cc1OC (stereo unspecified)	45
CCN(Cc1ccccc1)C(c1ccccn1)c1nnnn1C1CCCCC1 (stereo unspecified)	9
COc1ccccc1/C=N/N1C(=O)C(CC(=O)Nc2ccc([N+](=O)[O-])cc2OC)SC1=Nc1cccc(C)c1C (stereo unspecified)	15
O=C(c1ccc(S(=O)(=O)N2CCOCC2)cc1)N1CCN(c2ccccn2)CC1	10
COc1cc(C(=O)NC(=S)Nc2ccc([N+](=O)[O-])cc2)cc(OC)c1OC	9
CCCC(=O)Oc1ccc(N(C(=O)CCC)S(=O)(=O)c2cccc([N+](=O)[O-])c2)cc1	15
CCOc1cc(C(=O)NCCN2C(=O)S/C(=C\c3cccnc3)C2=O)cc(OCC)c1OCC	11
O=C(N/N=C/c1c[nH]c2ccc(Br)cc12)c1ccncc1	13
COc1ccc(CNc2nc(-c3cccnc3)nn2C(=O)CC(C)C)cc1	2
COc1ccc(OCC(=O)NC(=S)Nc2ccc3c4c(cccc24)CC3)cc1	9
COc1ccc(Nc2c(C)cccc2C)cc1	-7
C/C(CC(=O)NC1CCCC1)=N\NC(=O)c1ccc([N+](=O)[O-])c(Cl)c1	15
CCCC1=C(C(=O)OCC)C(c2cccs2)n2ncnc2N1 (stereo unspecified)	13
O=C(Nc1cccc(-c2nc3ccccc3[nH]2)c1)c1ccc(C(=O)Nc2cccc(-c3nc4ccccc4[nH]3)c2)cc1	15
COc1ccc(/C=N/NC(=O)c2c(C)nc3ccccn23)cc1[N+](=O)[O-]	11
COCC1CCCCN1Cc1cn[nH]c1-c1ccc(OC)cc1OC (stereo unspecified)	24

Part of the list above, as labelled records.
COc1ccc(CNc2nc(-c3cccnc3)nn2C(=O)CC(C)C)cc1
  Biofilm kill mix: 2

COc1ccc(OCC(=O)NC(=S)Nc2ccc3c4c(cccc24)CC3)cc1
  Biofilm kill mix: 9

Next part
SMILES	Biofilm kill mix
CCCCNC(=S)N(C)/N=C/c1ccc(F)cc1	3
Cn1c(=O)n(CC(=O)O)c(=O)c2c1nc1n2CCS1	7
O=C(NCCCc1ccccc1)Nc1cccc(Cl)c1	17
COc1ccc(/C=C/C(=O)O)cc1OC	7
Cc1ccc(-n2nnnc2SC(C(=O)c2c[nH]c3ccccc23)c2ccccc2)cc1 (stereo unspecified)	21
COc1ccc(N2CCN(C(=O)c3cccc4nc(C)oc34)CC2)cc1	10
COc1ccc(C(=O)NC(=S)Nc2ccc3oc(=O)ccc3c2)cc1	-4
S=C(NC1CCCCC1)NN1CCOCC1	-6
Nn1c(SCCOc2ccc(Cl)cc2)nnc1-c1cccnc1	7
CCOc1ccccc1NC(=O)Nc1ccc(Cl)cc1	12
Brc1cccc2sc(N3CCN(c4ccccc4)CC3)nc12	11
CC(NC(=O)COc1ccccc1-c1ccccc1)c1ccccc1 (stereo unspecified)	7
CCNCCC(CCC(C)C)c1ccc2c(c1)OCO2 (stereo unspecified)	16
Cc1ccsc1C(=O)Nc1cccc(S(=O)(=O)N(C)C)c1	13
CCN(CC)C(=O)CSc1n[nH]c(=S)n1N	11
O=C(COc1ccccc1[N+](=O)[O-])N/N=C/c1ccncc1	12
Cc1[nH]c2ccccc2c1C(=O)C(=O)NCCCn1ccnc1	24
O=C(O)CCC(=O)Nc1ccccc1C(=O)NCc1ccco1	5
CCc1nnc(NC(=O)[C@@H](NC(=O)c2ccc(C(C)(C)C)cc2)C(C)C)s1	7
CCN(CC)CCNC(=O)C(C)c1nn(CC)c(=O)c2ccccc12 (stereo unspecified)	13
COc1ccc(S(=O)(=O)NCC2CCCN(C(=O)c3cccs3)C2)cc1 (stereo unspecified)	-4
C/C(=N\NC(=O)c1ccccc1F)c1ccc2c(c1)Nc1ccccc1S2	15
Cc1cc(C(=O)NCc2ccc3c(c2)OCO3)c(C)o1	15
O=C(NCc1ccccc1)C(=O)NCC(c1ccco1)N1CCOCC1 (stereo unspecified)	11
COCCN1C(=O)CC(NNC(=O)c2ccc(S(=O)(=O)N3CCCC3)cc2)C1=O (stereo unspecified)	3

Part of the list above in order of length of the SMILES, highest first.
SMILES	Biofilm kill mix
O=C(NCc1ccccc1)C(=O)NCC(c1ccco1)N1CCOCC1 (stereo unspecified)	11
Cc1ccsc1C(=O)Nc1cccc(S(=O)(=O)N(C)C)c1	13
COc1ccc(/C=C/C(=O)O)cc1OC	7

Back to the main list; the 2 compounds before the break are reprinted first.
SMILES	Biofilm kill mix
O=C(NCc1ccccc1)C(=O)NCC(c1ccco1)N1CCOCC1 (stereo unspecified)	11
COCCN1C(=O)CC(NNC(=O)c2ccc(S(=O)(=O)N3CCCC3)cc2)C1=O (stereo unspecified)	3
COc1ccc(C(=O)Nc2cccnc2)cc1OC	4
CC(C)Cc1nc2sc3c(c2c(=O)n1N)CC(C)(C)OC3	23
CC(C)(Oc1ccc(Cl)cc1)C(=O)N(Cc1ccccc1)c1ccccn1	16
CCC(CC)C(=O)OCC(=O)Nc1cccc([N+](=O)[O-])c1	17
O=C(Oc1cccc(-n2cnnn2)c1)c1ccco1	17
CN(CC1CCOCC1)C(=O)CC1C(=O)NCCN1C/C=C/c1ccccc1 (stereo unspecified)	18
COc1ccc(S(=O)(=O)N2CCC(C(=O)N3CCc4ccccc4C3)CC2)cc1OC	6
Cc1ccccc1CSCc1ccc(C(=O)NCCCN2CCOCC2)o1	12
CN(C(=O)Cn1nnc(-c2cccnc2)n1)C1CCCCC1	27
O=C(NC1CC1)C1CCN(C2CCN(C(=O)Cc3ccc4c(c3)OCO4)CC2)CC1	26
CCC(C)(C)NC(=O)CN(Cc1ccccc1Cl)C(=O)CCC(=O)Nc1cc(C)ccn1	16
COc1ccc(S(=O)(=O)N(C)C)cc1NC(=O)COC(=O)CC1CCCC1	5
Cc1ccc(C2CC(C(F)F)n3ncc(C(=O)Nc4c(C)nn(Cc5c(F)cccc5Cl)c4C)c3N2)cc1 (stereo unspecified)	14
Cc1cccc(C)c1OCc1nc2ccccc2[nH]1	7
O=c1c(Cl)c(NCc2ccc(F)cc2Cl)cnn1C12CC3CC(CC(C3)C1)C2	14
O=C(CSc1nc2ccccc2c(=O)n1-c1ccc(F)cc1F)c1c[nH]c2ccccc12	5
CC1CCN(S(=O)(=O)c2ccc(S(=O)(=O)NCc3ccco3)cc2)CC1	3
CCCCC1(CC(=O)OCC)C(=O)N(c2ccccc2)N(c2ccccc2)C1=O	12
Cc1[nH]n(-c2ccc(Cl)cc2)c(=O)c1N=Nc1cccnc1	19
Cc1ccccc1NC(=S)N(CCc1c(C)[nH]c2ccc(F)cc12)Cc1ccncc1	5
Cc1ccc(S(=O)(=O)Oc2ccc(/C=C(/NC(=O)c3ccccc3)C(=O)NCC(=O)O)cc2)cc1	20
Cc1nc2ccccc2c(C)c1C(=O)c1ccc(F)cc1	1
CC1OC(O[C@H]2CC[C@]3(C)C4C=C[C@]56OC[C@@]7(CC[C@@H](C)[C@H](C)C75)[C@H](O)C[C@@]6(C)[C@]4(C)CC[C@H]3C2(C)C)C(OC2OC(CO)C(O)C(O)C2OC2OCC(O)C(O)C2O)C(O)C1O (stereo partly specified)	3
COc1cc(NS(=O)(=O)c2ccc(NC(=O)/C(=C/c3ccccc3Cl)NC(=O)c3ccccc3)cc2)nc(OC)n1	-5
CCOC(=O)c1sc(Nc2nc3c(F)cccc3s2)cc1C	6

Part of the list above in another layout.
Cc1ccc(C2CC(C(F)F)n3ncc(C(=O)Nc4c(C)nn(Cc5c(F)cccc5Cl)c4C)c3N2)cc1 (stereo unspecified)
  Biofilm kill mix = 14
Cc1cccc(C)c1OCc1nc2ccccc2[nH]1
  Biofilm kill mix = 7
O=c1c(Cl)c(NCc2ccc(F)cc2Cl)cnn1C12CC3CC(CC(C3)C1)C2
  Biofilm kill mix = 14
O=C(CSc1nc2ccccc2c(=O)n1-c1ccc(F)cc1F)c1c[nH]c2ccccc12
  Biofilm kill mix = 5

Later entries
SMILES	Biofilm kill mix
CCCCC(=O)Nc1cccc(NC(=S)NC(C)=O)c1	18
C#CCOCCOCCOCCNc1nc(N2CCN(C(=O)[C@H](CCC(=O)O)n3cc(C(N)CO)nn3)CC2)nc(N2CCN(C(=O)[C@H](Cc3cc4ccccc4[nH]3)n3cc(C(N)[C@H](C)CC)nn3)CC2)n1 (stereo partly specified)	20
CN(C)c1ccc(NS(=O)(=O)c2cc(Cl)ccc2Cl)cc1	10
Cc1cccn2c(CNCCCn3ncc4ccccc43)c(C(=O)N3CCCCC3)nc12	0
CCc1ccc(OCC(=O)NNC(=O)c2cc3ccccc3o2)cc1	22
COc1ccc(Cl)cc1NC(=O)[C@@H]1CCCN1C(=O)c1cccs1	-4
CCCCCCCCOC(=O)/C=C/c1c(C)[nH]c(=O)[nH]c1=O	10
Cc1nnc(N/N=C/c2ccccc2O)n1N	11
O=C(O)c1cc(-c2cccs2)nn1-c1cccc(Cl)c1	9
CC(C)OC(=O)CSc1nc(Cc2ccccc2)nc2ccccc12	16
Cc1ccccc1OCc1nc(-c2ccc(NC(=O)c3cccs3)cc2)no1	11
Nc1nn2c(C(F)(F)F)cc(=O)[nH]c2c1N=Nc1cccc(F)c1	13
CC(C)CCn1c2ccccc2c2cc(CC(N)=O)ccc21	27
COC(=O)/C(C#N)=C/c1c[nH]c2ccccc12	19
CCCCCNC(=O)C1CC=CCC1C(=O)O (stereo unspecified)	11
Cc1cc(C(=O)CN2CCC(C)CC2)c(C)n1-c1ccc(F)cc1	14
CCN(CC)S(=O)(=O)c1ccc(Cl)c(NC(=O)COc2ccc3c(C)cc(=O)oc3c2)c1	1
C=CCNC(=S)NCCCCC1NC(=S)N(CC=C)C1=O (stereo unspecified)	19
Cc1ccccc1OCC(=O)NNC=O	11
Oc1ccc(Nc2ncnc3scc(-c4ccccc4)c23)cc1	14
COc1cccc(C(=O)NNC(=O)Cc2cccs2)c1	17
O=c1nc(Nc2ccccc2)oc2ccccc12	21
Cc1nc(-c2ccccn2)nc(SCC(=O)N2CCOCC2)c1Cl	19
Cc1ccn2cc(CNS(=O)(=O)c3cccs3)nc2c1	22
COCCN(C(=O)CCC(=O)Nc1cc(C)on1)C(C(=O)NC1CCCC1)c1ccccc1C (stereo unspecified)	16
Other structures.
SMILES	Biofilm kill mix
COc1ccc(NC(=O)c2sccc2-n2cccc2)cc1	14
O=[N+]([O-])c1ccc(/C=[N+](\[O-])CCO)o1	23
CCC(C)C(NC(N)=O)C(=O)Nc1ccc(OCc2ccccc2)cc1 (stereo unspecified)	29
CCOc1ccc2nc(SCC(=O)NCc3ccc(OC)c(OC)c3)[nH]c2c1	21
O=C1/C(=C\c2ccc(Br)o2)Cc2ccccc21	12
CSc1nnc(CCNC(=O)OC(C)(C)C)o1	0
COc1cccc(-n2nc(C(C)=O)c(=O)[nH]c2=O)c1	11
COc1ccc(C2CC(c3ccccc3OC(C)=O)=NN2C(C)=O)cc1 (stereo unspecified)	19
CC(c1n[nH]c(=S)n1-c1ccccc1)N1CCCCC1 (stereo unspecified)	6
COc1ccc(/C=C/C(=O)c2ccc(OC)cc2OC)cc1	18
CCOC(=O)c1cc(-c2ccccc2)n(CCC(=O)N2CCN(c3ccc(OC)cc3)CC2)c1C	14
COc1cccc(NC(=O)NC2(C(F)(F)F)Oc3ccccc3O2)c1	16
O=C(CN1CCN(Cc2ccccc2)CC1)NCC1COc2ccccc2O1 (stereo unspecified)	10
Clc1ccccc1C1=CC(c2ccco2)n2nnnc2N1 (stereo unspecified)	12
Cn1c2ccccc2n2c(=O)c(Cl)c(-c3ccccc3)c(C#N)c12	10
Cc1cccc(C)c1N1CCN(c2n[nH]c(N)n2)CC1	14
COC(=O)CN(C#N)c1nc(NC(C)C)nc(NC(C)C)n1	10
COc1cccc(C(=O)Nc2cccc(C(=O)NC3=NN(c4c(Cl)cc(Cl)cc4Cl)C(=O)C3)c2)c1	6
CCOc1ccc(N2C(=O)CC(N(CCc3ccc(S(N)(=O)=O)cc3)C(C)=O)C2=O)cc1 (stereo unspecified)	6
C=CCOC(=O)C(=O)/C=C/c1c(C)n(C)n(-c2ccccc2)c1=O	15
COc1cc(NC2c3ccccc3C(=O)N2Cc2ccccc2Cl)cc(OC)c1OC (stereo unspecified)	21
CCNC(=S)N/N=C(\C)c1ccc2ccccc2c1OC(F)F	3
Cc1ccc(NC(=O)OCCN2CCN(Cc3ccccc3)CCC2=O)cc1	-3
O=C(Nc1ccc(F)cc1)C1CCCO1 (stereo unspecified)	0
COc1ccccc1N1CCN(/N=C/C=C/c2ccccc2[N+](=O)[O-])CC1	21
CC(=O)Nc1ccc(NC(=O)C(C)OC(=O)CNS(=O)(=O)c2cccc(Cl)c2)cc1 (stereo unspecified)	2
COC(=O)C1=C(C)N(C)C(=O)/C1=C\c1cccs1	14
CCOc1ccc(Oc2c(C)oc3cc(O)ccc3c2=O)cc1	9
